AID504770 = growth inhibition of E. coli YBA685, primary screen, V. cholerae RctB inhibitors; z-score (no concentration beside the values); 130,000 compounds, 0.27% hits; E. coli YBA685 rctB-dependent plasmid, OD600 growth, 3 h; stronger effect = lower value;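 active = z-score under -2 on both plates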;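 note: wells of about 30 µL received 100 nL stock; score is relative to mean and SD of the test wells; the first replicate is given; strong numbers were not always called active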
Ba CapD inh = Bacillus anthracis CapD inhibitors, primary screen, biochemical, fluorescence intensity; CapD gamma-glutamyltranspeptidase (Bacillus anthracis Ames Ancestor); purified CapD enzyme, fluorescence intensity read-out; stronger effect = lower value; some hits fall short of the stated cut; z-score (test concentration not listed); 140,000 compounds, 0.23% hits;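 active = z-score under -4 in either of two replicates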;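 note: stock transfer was 100 nL into about 40 µL; score is relative to mean and spread of the plate; one replicate is shown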
An asterisk follows results filed as active; i = inactive; x = not tested or not shown; & = joins results of further samples.

| Structure | AID504770 | Ba CapD inh |
| --- | --- | --- |
| NS(=O)(=O)c1ccc(-n2cccc2C=Nn2cnnc2)cc1 | -0.6 | -1.8 |
| ON(/C=C1\C=Nc2ccccc21)c1ccccc1 | 1.1&-0.1 | -2.7 |
| O=C(NCc1ccco1)C(=S)NCc1ccccc1 | -0.2 | -0.36 |
| O=C(Nc1ccccc1Cl)c1ccccc1 | 0.4 | -0.46 |
| CS(=O)(=O)Nc1ccc(C2=NN(S(C)(=O)=O)C(c3ccc4c(c3)OCO4)C2)cc1 (centres undefined) | 0.3 | x |
| Cc1ccc(C(=O)NC(Nc2cc(C)on2)(C(F)(F)F)C(F)(F)F)cc1 | -0.05 | 0.39 |
| Fc1ccc(CNC(=S)NCCN2CCOCC2)cc1 | -0.95 | x |
| O=C(OCc1ccc(SC(F)(F)F)cc1)N1CCN(Cc2cc3ccccc3o2)CC1 | x | -0.67 |
| O=C(CSc1ccc2c(c1)OCCO2)N1CCC(c2ccccc2)=N1 | 0.15 | x |
| O=C(OCCO)c1cccc2c1-c1ccccc1C2=O | -0.55 | -0.54 |
| COc1cc(OC)cc(-n2nc(C(=O)Nc3c(F)cc(F)cc3Br)c3ccccc3c2=O)c1 | x | -0.52 |
| c1ccc2[nH]c(SCc3ccncc3)nc2c1 | 0.55 | -0.17 |
| COc1ccc(C2Nc3ccccc3C(=O)N2c2ccc(C)cc2)cc1CSc1ccccn1 (centres undefined) | x | 12 |
| CC(=O)Nc1nc2nc(C)c(Cc3ccccc3)c(=O)n2[nH]1 | x | -0.025 |
| CCOC(=O)c1ccc(NC(=O)c2sc(NC(=O)Cc3cccs3)c(C(=O)OCC)c2C)cc1 | x | 1.3 |
| Cc1ccc(N2COc3ccc4c5c(c(=O)oc4c3C2)CCCC5)c(C)c1 | 0.65 | 4.1 |
| CO/C=N/c1nc2c(s1)CCc1ccccc1-2 | -0.55 | -0.65 |
| Oc1[nH]c2ccccc2c1C=NCc1ccc2c(c1)OCO2 | 1.6 | -1.9 |
| COc1ccccc1N1CCNC(C)C1=O (centres undefined) | -1.1 | x |
| CS(=O)(=O)c1ncc(Cl)c(C(=O)Nc2sc3c(c2C(=O)NCC2CCCO2)CCC3)n1 (centres undefined) | 1.5 | 0.18 |
| O=C(Oc1cccnc1)c1ccc(Cl)c(Cl)c1 | -1.1 | i |
| O=C(CCc1nc2ccccc2[nH]1)NCc1ccc(F)cc1 | -0.65 | -0.56 |
| CC1CCCCN1S(=O)(=O)CCNC(=O)c1ccccc1 (centres undefined) | -0.7 | x |
| O=C1N=c2ccccc2=C1c1sc(=S)n(NC(=O)c2ccc(Br)cc2)c1O | x | -0.29 |
| COc1ccc(NC(=O)c2cc(-c3ccc(F)cc3)nc3ccccc23)cc1OC | x | 3.5 |

The last four entries of the part before open the next one.
| Structure | AID504770 | Ba CapD inh |
| --- | --- | --- |
| O=C(CCc1nc2ccccc2[nH]1)NCc1ccc(F)cc1 | -0.65 | -0.56 |
| CC1CCCCN1S(=O)(=O)CCNC(=O)c1ccccc1 (centres undefined) | -0.7 | x |
| O=C1N=c2ccccc2=C1c1sc(=S)n(NC(=O)c2ccc(Br)cc2)c1O | x | -0.29 |
| COc1ccc(NC(=O)c2cc(-c3ccc(F)cc3)nc3ccccc23)cc1OC | x | 3.5 |
| O=c1nc2n(-c3ccc(F)cc3)c3cccc(Cl)c3cc-2c(=O)[nH]1 | x | 0.14 |
| CC1(C)CC(/C=C/c2ccccc2)=Nc2ccccc2N1 | 0.4 | -2.6 |
| O=C(CCCC1CCCCC1)NCC1CCCO1 (centres undefined) | -0.65 | 0.045 |
| c1ccc2c(c1)oc1c(NCC3CCCCC3)ncnc12 | -0.05 | x |
| Cc1ccc(-c2csc(NC(=O)C(C)C)n2)c(C)c1 | -0.75 | -0.42 |
| O=C1NC(Cc2c[nH]c3ccccc23)C(=O)N1CN1CCCCC1 (centres undefined) | 0.1 | x |
| O=C(Nc1ccc(Cl)cc1Cl)c1c(O)c2c(n(Cc3ccco3)c1=O)CCCC2 | 0.15 | 18 |
| Cc1ccc(N/N=C2/C(=O)C3(C)CCC2C3(C)C)cc1 (centres undefined) | 0.8 | -0.23 |
| Cc1ccc(NC(=O)C(Cc2c[nH]c3ccccc23)NC(=O)OCc2ccccc2)cc1C (centres undefined) | -0.2 | 0.57 |
| NC(N)=NS(=O)(=O)c1ccc(N=Cc2cccs2)cc1 | -0.2 | -0.18 |
| Cc1cccc(N2CCN(CCNC(=O)c3cc4sccc4n3C)CC2)c1C | 0.2 | -0.49 |
| N#CCC(=O)Nc1cc(C(F)(F)F)cc(C(F)(F)F)c1 | 0.75 | -0.45 |
| CCOc1ccc(N2CC(c3nc4ccccc4n3CCCc3ccccc3)CC2=O)cc1 (centres undefined) | 1.6 | 0.18 |
| COc1ccc(NC(=O)c2ccc(N3C(=O)c4ccccc4C3=O)cc2)cc1 | 0.15 | -0.28 |
| CCOc1ccc(/C=C2\SC(=Nc3cccc(C)c3C)NC2=O)cc1 | 1.4 | -0.23 |
| CC1CCCCC1NC(=O)CSc1nnc(-c2ccco2)n1Cc1ccccc1 (centres undefined) | 0.05 | x |
| Cc1nnc2n(c1=O)N=C(N)CS2 | -1.1 | x |
| COc1ccc(C2=NOC(C(=O)Nc3c(C)n(C)n(-c4ccccc4)c3=O)C2)cc1 (centres undefined) | 0.3 | -0.14 |
| O=C(CSc1nc2ccccc2c(=O)n1NC(=O)CCc1c[nH]c2ccccc12)NCc1ccco1 | x | -0.39 |
| O=c1c(CN2CCNCC2)cc2cccc3c2n1CCC3 | x | 7.6 |
| Cc1nn(Cc2ccccc2)c2sc(C(=O)O)cc12 | -0.1 | 0.81 |
| CCOC(=O)C1=C(C)N=c2s/c(=C/c3ccc(OC(=O)c4ccco4)cc3)c(=O)n2C1c1ccccc1 (centres undefined) | x | -0.04 |
| CCN=C(NCC)SC1CC(=O)N(c2ccc(OCC)cc2)C1=O (centres undefined) | 1.4 | -0.7 |
| O=C(Nc1ccc2nsnc2c1NC(=O)c1ccc2nsnc2c1)c1ccc2nsnc2c1 | 0.4 | 1.5 |
| Cc1ccc(N=C(NN)c2ccc3ccccc3n2)cc1 | 1.8 | 1.5 |

Entries of single compounds as entered above:
`Cc1ccc(NC(=O)C(Cc2c[nH]c3ccccc23)NC(=O)OCc2ccccc2)cc1C` (centres undefined) reads AID504770: -0.2; Ba CapD inh: 0.57
`Cc1nn(Cc2ccccc2)c2sc(C(=O)O)cc12` reads AID504770: -0.1; Ba CapD inh: 0.81

(cont.)
| Structure | AID504770 | Ba CapD inh |
| --- | --- | --- |
| N=C1SC2CS(=O)(=O)CC2N1Cc1ccccc1Cl (centres undefined) | 0.45 | 0.26 |
| S=c1[nH]nc(-c2c[nH]c3ccccc23)n1CC1CCCO1 (centres undefined) | 0.65 | x |
| O=C(Nc1ccc2[nH]ccc2c1)c1cccnc1Sc1ccccc1 | 2.7 | 0.76 |
| O=C(/C=C/c1ccco1)N1CCCc2ccccc21 | -0.2 | -0.97 |
| CCOC(=O)c1sc(NC(=O)c2sc3nc(C)[nH]c(=O)c3c2C)nc1C | x | 1.5 |
| CCS(=O)(=O)C1=NN2C(=N)/C(=C\c3ccc(-c4ccccc4)o3)C(=O)N=C2S1 | -0.05 | -2.5 |
| CC(C)CN=C1NC(=O)C(CC(=O)NC2CC2)S1 (centres undefined) | -0.85 | x |
| CCOC(=O)/C=C1\SCC(=O)N1CC(=O)Nc1ccc(OC)c(Cl)c1 | 1.3 | x |
| Cc1ccc(CSC2=NCN(C(C)(C)CC(C)(C)C)CN2)cc1 | x | 0.085 |
| O=C(NCc1cccnc1)[C@H](Cc1ccccc1)N1Cc2ccccc2C1=O | 0.05 | 0.035 |
| Cc1ccc(-n2nc(C)c3nc(CCC(=O)O)c(=O)n(C)c32)cc1 | 0.3 | -1.5 |
| CSc1nnc(COc2ccc(C)c3c2CCC3)n1-c1ccccc1 | x | 0.24 |
| CN1CCCc2cc(/C=N/n3c(C(F)(F)F)n[nH]c3=S)ccc21 | -0.6 | 0.36 |
| COc1ccccc1CN(C)CC(=O)NC(=O)NC1CCCCC1 | -0.6 | x |
| c1ccc(OCc2nc(-c3ccccc3)no2)cc1 | -1.1 | -0.085 |
| O=C(O)C1CCCCC1C(=O)N1CC2CC(C1)c1cccc(=O)n1C2 (centres undefined) | x | 6 |
| O=c1c2ccccc2n2c(=S)[nH]nc2n1-c1ccccc1 | -0.85 | x |
| COc1ccc(C2NC(C(=O)O)Cc3[nH]cnc32)cc1CSc1nc2ccccc2[nH]1 (centres undefined) | x | -0.41 |
| N#Cc1ccc(C(CO)CO)nc1 | -0.15 | 0.29 |
| Cc1ccc(Cl)cc1NC(=O)c1ccc(N2CC3CC(C2)c2cccc(=O)n2C3)c(NC(=O)CCN2CCOCC2)c1 (centres undefined) | x | 0.02 |
| CCCNC(=O)N1CCc2cc(OC)c(OC)cc2C1c1cc2cc3c(cc2[nH]c1=O)OCO3 (centres undefined) | 0.4 | x |
| COc1cccc(C2(O)CC(C(F)(F)F)=NN2C(=O)Cc2ccccc2)c1 (centres undefined) | x | 1.5 |
| O=C(c1ccccc1C(=O)N1CCCCC1)N1CCCCC1 | -1 | -0.15 |
| O=C(O)CCS(=O)(=O)Cc1cccc(Cl)c1 | -0.1 | 0.11 |
| O=C(O)CNC(=O)COc1cccc2ccccc12 | 0.25 | -0.85 |
| COc1ccc(NC(=O)CSc2nc3ccccc3o2)cc1 | -0.8 | -0.62 |
| CCOC(=O)/C(C#N)=C(/N)c1cc2cccc(OC)c2oc1=O | -0.9 | -0.15 |
| Cc1nnc(NC(=O)Cc2n[nH]c(=O)c3ccccc23)s1 | 0.95 | x |
| O=C(CSc1ncnc2ccccc12)N1CCOCC1 | -0.7 | x |
| COc1cc(N)c(C#N)cc1OC | -2.1 | -0.93 |
| CC1=CC(c2ccccc2)=C(C#N)C(=S)C1CC(=O)c1cccs1 (centres undefined) | 0.5 | 25 |
| CCCCNC(=O)CSc1nc2sc(C(=O)OCC)c(C)c2c(=O)n1CC1CCCO1 (centres undefined) | x | -0.37 |
| O=S(=O)(c1cccc(-c2nnc(SC(F)F)n2-c2ccccc2)c1)N1CCCCC1 | -0.35 | x |
| C=CCn1c(C)csc1=Nc1ccc(S(=O)(=O)Nc2nc(C)cc(C)n2)cc1 | x | -0.95 |
| COc1ccc(C2=Nc3ccccc3C2=O)cc1 | -0.4 | 2.1 |
| Cc1ccc(C)c(N=C2c3ccccc3-c3nc4ccccc4cc32)c1 | x | 0.63 |
| O=C(N=Nc1c(O)[nH]c(=O)[nH]c1=O)c1ccccn1 | 0.8 | -0.15 |
| CC(C)(C)C1CCc2onc(C(=O)Nc3ccccc3C(F)(F)F)c2C1 (centres undefined) | 0.05 | 0.02 |
| CC(=O)Nc1nc(Br)sc1Cc1ccc(C)cc1 | 1.1 | -1.1 |
| CCOC(=O)c1ccc(NC(=O)c2sc(NC(=O)c3ccc(Cl)cc3)c(C(=O)OCC)c2C)cc1 | x | 5.4 |
| O=C(O)c1ccccc1NS(=O)(=O)c1cccc2nsnc12 | 0.15 | -2.7 |
| Cn1c(=O)cc(SCC(=O)N2CCCC2)c2ccccc21 | 0.25 | 9.5 |
| Cn1nnc(N2C(=O)C(O)=C(C(=O)c3ccco3)C2c2ccccc2)n1 (centres undefined) | -0.2 | -1.2 |
| Cc1nc(N2CCN(c3ccccn3)CC2)c2c(C)c(C(=O)Nc3ccc4c(c3)OCO4)sc2n1 | x | -0.55 |
| O=C(CCN1CCCCC1)Nc1ccc(Cl)cc1 | 0.05 | 7.9 |
| CN(C(=O)C1CCC1C(=O)O)c1nc(-c2ccc(Cl)s2)cs1 (centres undefined) | 0.05 | 0.01 |
| Cc1cc(C(=O)COC(=O)[C@@H]2CCCN2C(=O)c2cccs2)c(C)n1Cc1ccco1 | 0 | x |
| CCn1c(=O)c(C(=O)CN(C)CC(=O)Nc2ccccc2Br)c(N)n(Cc2ccccc2)c1=O | 0.6 | x |
| CC(C)C(NC(=O)C(c1ccccc1)c1ccccc1)C(=O)N1CCOCC1 (centres undefined) | -0.7 | -0.39 |
| Nc1cc(-c2ccccc2)nn1CC1CCCCC1 | -0.75 | 0.21 |

(continued)
| Structure | AID504770 | Ba CapD inh |
| --- | --- | --- |
| CC1CC(Nc2ccccc2)c2ccccc2N1C(=O)NC1CCCCC1 (centres undefined) | x | 0.33 |
| Cc1nn(CC(=O)N2CCCCC2)c(=O)c2ccccc12 | -0.4 | 0.41 |
| Cc1c(-c2ccccc2)nc2sc3c(c2c1N)CCCC3 | -0.6 | -0.1 |
| CSc1nsc(SC)c1C(=O)NC(C)C | 2.2 | -0.26 |
| COC(=O)CNC(=O)c1cccnc1Oc1ccc(C)cc1 | -0.6 | -0.05 |
| CC(C)(C)N1CN=C(SCc2ccc(Cl)cc2)NC1 | -2 | 0.19 |
| COc1ccc(/C=C2/NC(=O)NC2=O)cc1 | -0.1 | -0.36 |
| O=C(Nn1cnnc1)c1cc(-c2ccccn2)nc2ccccc12 | -1.4 | x |
| Cc1nc2sc3c(c2c(=O)o1)CCC(C)C3 (centres undefined) | x | -0.1 |
| Cn1c2c(c(=O)n(C)c1=O)C1(C(=O)Nc3ccccc31)C(C#N)=C(N)O2 (centres undefined) | x | -0.26 |
| Cc1cccc(N2CCN(C(=O)c3cccc(N4C(=O)C5C6C=CC(C6)C5C4=O)c3)CC2C)c1 (centres undefined) | x | -0.84 |
| CCN(c1ccccc1)S(=O)(=O)c1ccc2[nH]cc(C(=O)N3CCOCC3)c(=O)c2c1 | 2.8 | -0.45 |
| O=S(=O)(c1cccs1)N1CCN(c2cccc(Cl)c2)CC1 | 0 | 0.15 |
| CC(C)(C)c1cc(C(=O)Nc2cccnc2)cc(C(=O)Nc2cccnc2)c1 | 0.7 | 1.1 |
| CCOC(=O)N/N=C1\CC(C)S(=O)(=O)c2ccc(Cl)cc21 (centres undefined) | x | -0.29 |

Assay outcomes as filed in PubChem.

Not all compounds are listed. The share of hits here may be higher or lower than overall.
